HEK293 NFkB inh: inhibitors of PMA/ionomycin-induced NF-kB reporter, primary screen, antigen receptor NF-kB inhibitor project, cell-based, HEK-293 luciferase reporter, luminescence; HEK-293 NF-kB luciferase reporter; inhibition, % at 3 µM; AID 465, 2006; 0.21% of 62,000 active;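 active means inhibition above the mean of all tested compounds plus 3 SD, cut at about 40% in these data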;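 further: 0% = stimulated DMSO wells and 100% = 10 µM reference inhibitor 5653914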
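System – HEK-293 cells with stable firefly luciferase reporter driven by four HIV NF-kB elements · Doses – one dose, 3 µM · Schedule – 1 h compound pre-incubation, 16 h PMA/ionomycin at 37 °C · Technique – luminescence from luciferase substrate reagent · Measure – percent inhibition normalized per plate to DMSO and reference-inhibitor controls · Replicates – tested once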
Autofluor 339: intrinsic fluorescence of library compounds, ex339/em460 – biochemical, MLSMR library, data from DPM-DC assay, artefact control, profiling panel; compound autofluorescence, ex339/em460 nm, NADH buffer; stronger effect = higher value; 1 = no-compound wells, NADH background; fluorescence fold increase at 10 µM; 5.5% of 65,000 active;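 active means at 10 µM, mean starting fluorescence two-fold or more over control wells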;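 further: signal is the first read of a kinetic run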
JNK3 inh: JNK3 kinase activity inhibitors, primary screen, biochemical, human, purified enzyme. Mitogen-activated protein kinase 10 (Homo sapiens), P53779. HTS. inhibition, % at 8 µM. 0.61% of 60,000 active. AID 746, 2007; in the data active means inhibition above about 17%;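 further: 0% = DMSO and 100% = reference inhibitor; many of its hits are not listed in these tables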
Target sequence (P53779 whole entry, looked up): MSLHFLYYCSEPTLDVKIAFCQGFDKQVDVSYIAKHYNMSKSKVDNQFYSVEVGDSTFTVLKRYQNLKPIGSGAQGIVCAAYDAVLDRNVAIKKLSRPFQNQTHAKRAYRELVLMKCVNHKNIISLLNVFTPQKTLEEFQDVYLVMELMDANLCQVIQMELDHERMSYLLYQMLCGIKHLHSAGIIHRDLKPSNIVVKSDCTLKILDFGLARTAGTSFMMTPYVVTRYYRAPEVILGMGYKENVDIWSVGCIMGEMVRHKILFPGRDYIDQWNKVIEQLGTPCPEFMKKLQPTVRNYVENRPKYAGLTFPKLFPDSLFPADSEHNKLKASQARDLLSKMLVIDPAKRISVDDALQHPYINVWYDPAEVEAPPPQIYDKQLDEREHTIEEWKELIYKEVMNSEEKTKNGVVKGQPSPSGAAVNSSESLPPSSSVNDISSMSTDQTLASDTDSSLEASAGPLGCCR
NADH coupling: inhibitors of PK/LDH coupling enzymes, profiling panel, artefact control, biochemical, MLSMR library. coupled PK/LDH NADH assays, four targets. IC50, µM (highest dose often 10 µM), inactives show at the top dose inhibition. 0.02% of 65,000 active. AID 774, 2007;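 active means single-dose screening hits from any of four coupled enzyme assays that gave an IC50 when retested across doses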;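 further: the DPM-DC format reads NADH fluorescence rather than 340 nm absorbance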
tolC growth inh: growth inhibitors of E. coli tolC mutant, primary screen, strain BW25113 ΔtolC::kan, 384-well; OD615; growth inhibition, % at 10 µM (by protocol); 2.2% of 65,000 active; AID 573, 2007;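 active means growth inhibition at or above a cutoff equal to the mean over every tested compound plus 3 SD, cut at about 60% in these data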;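 further: growth measured after 20 h incubation at 37 °C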
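System: E. coli ΔtolC::kan strain BW25113; Buffer or medium: LB broth supplemented with 50 µg/mL kanamycin; Compound: 10 µM final, single dose; Incubation: bacterial growth with compound for 20 h at 37 °C; Signal: A615 absorbance measurement; Evaluation: growth inhibition in percent.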
MMP-13 inhibitor: human MMP13 inhibitors, primary screen, biochemical, FRET peptide cleavage | Collagenase 3 (Homo sapiens), P45452 | inhibition, % at 4 µM | MMP-13 fTHP FRET cleavage, Mca fluorescence | 0.07% of 65,000 active;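 active means inhibition above the mean of compound-free control plate wells plus 3 SD, cut at about 14% in these data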;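 further: 0% = DMSO wells and 100% = wells with reference MMP-13 inhibitor after basal subtraction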
A340 absorber: compound light absorbance at 340 nm, profiling panel, artefact control, biochemical, MLSMR library, data from PS, PMK, MK assays; compound absorbance at 340 nm, fold over control; fold change at 10 µM; 65,000 tested, under 10 active; AID 708, 2007;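 active means at 10 µM dose, initial 340 nm absorbance at least 2 fold that of control wells; inactive means change under 2 fold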;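 further: initial absorbance extrapolated from kinetic A340 decline of NADH oxidation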
* = called active by the depositor; / = no result given; [ ] = remark or other dose.

SMILES	HEK293 NFkB inh	Autofluor 339	JNK3 inh	NADH coupling	tolC growth inh	MMP-13 inhibitor	A340 absorber
COc1ccccc1-c1noc(CCC(=O)Nc2cc(C(F)(F)F)ccc2Cl)n1	10	1.2	-2	6%	0	5	1
CC(C)(Oc1ccc(Cl)cc1)C(=O)NCc1ccncc1	-2	1	1	3%	2	8	1
CCOC(=O)c1nnn(-c2nonc2N)c1-c1ccc(OCC)cc1	7	1.1	5	4%	12	0	1
CCCN(C(=O)c1cccs1)c1nnc(-c2ccncc2)s1	-12	1.5	4	14%	13	-9	1
CC(C)C(NC(=O)C1CCCCC1)C(=O)Nc1ccccn1 (centres undefined)	14	1.1	-4	6%	-18	-4	0.99
CC(C)(C)n1ncc2c(=O)n(CC(=O)NCc3ccccc3Cl)cnc21	-71	1.1	0	6%	5	-3	0.97
COc1ccc(-c2nc3cnccn3c2Nc2ccc3c(c2)OCO3)cc1	10	1.9	-6	14%	33	-8	1.1
c1ccc(CCNc2ncnc3nc[nH]c23)cc1	5	1.1	9	3%	1	-3	1.1
COc1ccccc1N1CCN(c2ncnc3nc[nH]c23)CC1	11	1	3	6%	-10	-4	1
CCOC(=O)C1CCN(C(=O)CC(NS(=O)(=O)c2ccc(OC)cc2)C(C)C)CC1 (centres undefined)	16	1.1	4	3%	-8	-1	1
COc1ccc(Nc2ncnc3nc[nH]c23)cc1OC	-1	0.99	5	3%	-21	-1	1.1
CCCNC(=O)NC(=O)CSc1nnc(-c2ccncc2)n1CC	8	1.3	0	5%	-7	-9	1
COC(=O)Nc1nnc(-c2ccncc2)s1	17	3.7*	-6	7%[fluoresces]	-13	-76[fluorescence artefact?]	1.1
COc1ccc(C)cc1NC(=O)c1cc2cc3ccc(C)cc3nc2o1	8	4*	-1	8%[fluoresces]	-15	3	1.1
CCc1nnc(NC(=O)CSc2nnc(-c3ccncc3)n2Cc2ccccc2)s1	8	1.1	8	9%	-9	-4	1
Cc1cccc(-c2cc3nc4c(c(N5CCC6(CC5)OCCO6)n3n2)CCCC4)c1	5	1.5	2	5%	51	1	1
CCOc1ccc(Cn2nnc(C(=O)NCc3ccccc3)c2N)cc1	10	1	-3	3%	0	3	1
C/C(=C\C(=O)Nc1cc(C)on1)c1ccccc1	2	1.4	-1	4%	5	3	0.99
COc1ccc(C)c(Cn2c(-c3nonc3N)nc3ccccc32)c1	34	1.1	-3	0%	8	0	1.1
O=S(=O)(c1cccc(-c2nnc(SCc3ccc(Cl)cc3)o2)c1)N1CCCCC1	12	1	1	7%	21	-3	0.98
CCOC(=O)c1sc(NC(=O)c2ccc(S(=O)(=O)N3CCOCC3)cc2)cc1C	18	1.2	1	8%	13	4	1
CCc1ccc2[nH]cc(C(=O)N3CCCCCC3)c(=O)c2c1	18	1	3	6%	-8	3	1.1
CC1(C)CC(=O)c2cnc(NC(=O)CSc3nc4ccccc4o3)nc2C1	16	1	2	4%	-8	3	1
Cc1cc(C)n(C(=O)c2ccncc2)n1	-7	1.1	4	3%	-34	-1	1.1
C=CCn1c(SCc2ccccc2)nnc1-c1cccnc1	0	1.1	-7	3%	-2	7	1.1
CC(C)CCN1C(=O)c2ccc(C(=O)OCn3nnc4ccccc4c3=O)cc2C1=O	5	1	2	5%	7	-7	1
COCCn1c(C(C)C)nc2oc3ccccc3c(=O)c2c1=O	-1	1.1	-6	6%	-21	3	0.97
Nc1nonc1-c1nc2ccccc2n1Cc1ccccc1	13	1.4	1	2%	7	-1	1
Cc1ccccc1CS(=O)(=O)CCC(=O)NCCCN1CCOCC1	12	1.1	-1	8%	-17	1	1
O=C(NC1CCCCC1)C1CCN(c2nccs2)CC1	7	1.1	6	1%	-28	2	0.96
Cc1ccc2cc3cc(C(=O)NCCN4CCOCC4)oc3nc2c1	5	3.2*	1	14%[fluoresces]	-6	-152[fluorescence artefact?]	1.1
CCCc1cc(C(=O)N2CCN(C(c3ccccc3)c3ccccc3)CC2)no1	-1	1.1	-2	4%	58	2	1
CC(C)CC(NC(=O)C1CCCN1C(=O)OC(C)(C)C)C(=O)NCC(N)=O (centres undefined)	0	1.1	1	8%	-22	2	0.98
COCCCNc1ncnc2nc[nH]c12	18	1.1	1	8%	-8	5	1
CCOC(=O)CNC(=O)CSc1nc2cccnc2n1C1CCCCC1	6	1.1	2	10%	8	1	0.99
O=C(Cc1ccccc1)Nc1ccc2oc(-c3ccncc3)nc2c1	4	3.9*	1	5%[fluoresces]	8	-31	1.1
O=C(Cc1cccs1)Nc1nnc(-c2ccncc2)s1	6	2.2*	1	5%[fluoresces]	0	-29	1.1
c1ccc2c(c1)nnn2Cc1nnc2sc(-c3ccncc3)nn12	14	1.1	-5	7%	3	2	1
Cc1cc(NC(=O)c2ccc3nc(C)sc3c2)no1	15	1.1	-3	0%	-1	4	1
O=C(Nc1nnc(-c2ccccc2)s1)c1ccc(Cl)c(S(=O)(=O)N2CCOCC2)c1	11	1.1	-2	2%	0	1	1.1
COCC(=O)NCc1ccc2c(c1)OCO2	2	1.1	-1	3%	-14	-1	1.1
Cc1c(NC(=O)c2ccc3c(c2)OCO3)cccc1-c1nc2ncccc2o1	4	1.1	10	1%	7	4	1.1
COc1cccc(NC(=O)CN2CCN(c3ccccc3F)CC2)c1	-15	1.1	-1	1%	8	-4	0.99
Cn1c(=O)c2c(nc(NCc3ccc4c(c3)OCO4)n2Cc2ccc(F)cc2)n(C)c1=O	/	1.1	4	2%	8	-4	1
O=C(CCN1C(=O)c2ccccc2S1(=O)=O)Nc1nc2c(s1)CCCC2	2	1.1	3	3%	16	-3	1.1
O=C1N(CN2C(=O)C3(OCCO3)c3ccccc32)c2ccccc2C12OCCO2	-1	1.1	0	7%	-6	-4	1
Cc1cc(C)cc(C(=O)/C=C2\NC(=O)CS2)c1	15	0.99	0	7%	-5	5	1.2
COc1ccccc1-c1nnc(SCC(=O)NC2CCCCC2)o1	2	1.1	-6	3%	3	5	1
COc1cccc(NC(=O)c2ccc(CN3CCN(c4ccccc4)CC3)cc2)c1	-8	1	4	4%	32	0	0.98
COC(=O)[C@H](C)NC(=O)Nc1ccc(S(N)(=O)=O)cc1	7	1.1	-5	3%	-26	4	0.99
COc1ccc(CCNc2ncnc3nc[nH]c23)cc1OC	7	1.1	4	1%	-17	3	1
CCCS(=O)(=O)N1CCC(C(=O)NCCCN(CC)c2cccc(C)c2)CC1	9	1.1	-6	2%	-9	0	1
CNC(=O)N(O)C1N(C)C(=O)N(CC(=O)OC)C1(C)C (centres undefined)	11	1.1	-1	8%	-14	-2	1
Cc1noc(NS(=O)(=O)c2ccc(N/C=C/C(=O)c3ccc4c(c3)OCO4)cc2)c1C	-10	1.2	4	4%	13	0	1.1
O=C(CCc1nc(-c2ccccc2F)no1)NC1CCCCC1	12	1.1	2	3%	-3	3	1.1
CCc1cc2c(NCC(=O)O)ncnc2s1	18	0.91	-5	8%	-30	2	1
COCCCn1c(C2CCCCC2)nc2oc3cc(OC)ccc3c(=O)c2c1=O	2	1.1	-2	9%	-3	-4	1.1
O=C(NCCc1c[nH]c2ccccc12)c1cc(S(=O)(=O)N2CCCCC2)ccc1N1CCOCC1	12	1	-5	5%	14	3	1
COCCn1c(C)nc2oc3ccc(Br)cc3c(=O)c2c1=O	19	1.1	1	10%	-19	-4	1
COc1ccc2[nH]c3c(=O)n(Cc4ccco4)cnc3c2c1	2	3.9*	2	10%[fluoresces]	-12	-105[fluorescence artefact?]	1.1

16 entries from above, sorted by molar mass, smallest number first:
SMILES	HEK293 NFkB inh	Autofluor 339	JNK3 inh	NADH coupling	tolC growth inh	MMP-13 inhibitor	A340 absorber
CCc1cc2c(NCC(=O)O)ncnc2s1	18	0.91	-5	8%	-30	2	1
CNC(=O)N(O)C1N(C)C(=O)N(CC(=O)OC)C1(C)C (centres undefined)	11	1.1	-1	8%	-14	-2	1
COc1ccc2[nH]c3c(=O)n(Cc4ccco4)cnc3c2c1	2	3.9*	2	10%[fluoresces]	-12	-105[fluorescence artefact?]	1.1
COc1ccc(CCNc2ncnc3nc[nH]c23)cc1OC	7	1.1	4	1%	-17	3	1
COC(=O)[C@H](C)NC(=O)Nc1ccc(S(N)(=O)=O)cc1	7	1.1	-5	3%	-26	4	0.99
COc1cccc(NC(=O)CN2CCN(c3ccccc3F)CC2)c1	-15	1.1	-1	1%	8	-4	0.99
COc1ccccc1-c1nnc(SCC(=O)NC2CCCCC2)o1	2	1.1	-6	3%	3	5	1
COCCn1c(C)nc2oc3ccc(Br)cc3c(=O)c2c1=O	19	1.1	1	10%	-19	-4	1
Cc1c(NC(=O)c2ccc3c(c2)OCO3)cccc1-c1nc2ncccc2o1	4	1.1	10	1%	7	4	1.1
O=C(CCN1C(=O)c2ccccc2S1(=O)=O)Nc1nc2c(s1)CCCC2	2	1.1	3	3%	16	-3	1.1
O=C1N(CN2C(=O)C3(OCCO3)c3ccccc32)c2ccccc2C12OCCO2	-1	1.1	0	7%	-6	-4	1
COCCCn1c(C2CCCCC2)nc2oc3cc(OC)ccc3c(=O)c2c1=O	2	1.1	-2	9%	-3	-4	1.1
COc1cccc(NC(=O)c2ccc(CN3CCN(c4ccccc4)CC3)cc2)c1	-8	1	4	4%	32	0	0.98
CCCS(=O)(=O)N1CCC(C(=O)NCCCN(CC)c2cccc(C)c2)CC1	9	1.1	-6	2%	-9	0	1
Cn1c(=O)c2c(nc(NCc3ccc4c(c3)OCO4)n2Cc2ccc(F)cc2)n(C)c1=O	/	1.1	4	2%	8	-4	1
Cc1noc(NS(=O)(=O)c2ccc(N/C=C/C(=O)c3ccc4c(c3)OCO4)cc2)c1C	-10	1.2	4	4%	13	0	1.1

(further entries)
SMILES	HEK293 NFkB inh	Autofluor 339	JNK3 inh	NADH coupling	tolC growth inh	MMP-13 inhibitor	A340 absorber
CN1CCN(c2nc(-c3ccncc3)nc3ccccc23)CC1	6	1	6	5%	14	0	1
O=C(CCn1c(=S)[nH]c2ccccc2c1=O)NCCCN1CCCC1=O	6	0.98	-8	7%	-19	2	1
O=C(Nc1ccncc1)c1c(F)cccc1F	35	1.1	-4	1%	4	1	1.1
Cc1cc(Br)c(S(=O)(=O)n2nnc3ccccc32)cc1C	4	1	-3	5%	-22	-3	0.98
O=C(Cn1cnc2c(cnn2-c2ccc(F)cc2)c1=O)NCc1ccco1	-3	1.1	11	10%	-19	-10	0.97
COc1cc(N)cc(NC(=O)c2ccncc2)c1	9	1.1	4	6%	-29	-5	1
COc1cccc(C(=O)Nc2ccc(S(=O)(=O)Nc3onc(C)c3C)cc2)c1	11	1.1	5	11%	16	-1	1
CCCc1nc2oc3cc(OC)ccc3c(=O)c2c(=O)n1Cc1ccco1	3	1.1	-4	10%	61*	-8	1
O=C(CSc1nnc(-c2cccnc2)o1)Nc1ccccn1	-9	1.1	-9	0%	-2	8	1

Only part of the results is shown; the hit share may differ from the screen's.
